# ClpP mod – qHTS Assay for Activators of ClpP. ATP-dependent Clp protease proteolytic subunit (Bacillus subtilis (strain 168)), P80244. purified B. subtilis ClpP, FRET peptide cleavage, 20 min. Potency, µM (series often up to 57.5 µM), for inactives: at the top dose activity change, negative = active. actives 1.9% (n = 340,000). AID 651965, 2013; active = well fitted falling curve with a large enough effect; inconclusive = small, poorly fitted or top-dose-only effect; inactive = no such curve, though single readings can be large or run the other way; also: the source files actives as falling curves though it sought activators and does not explain the sign; nearly all actives have a fitted effect of over 65% in size; many hits overshoot -100%
# Target sequence (P80244 whole entry, looked up): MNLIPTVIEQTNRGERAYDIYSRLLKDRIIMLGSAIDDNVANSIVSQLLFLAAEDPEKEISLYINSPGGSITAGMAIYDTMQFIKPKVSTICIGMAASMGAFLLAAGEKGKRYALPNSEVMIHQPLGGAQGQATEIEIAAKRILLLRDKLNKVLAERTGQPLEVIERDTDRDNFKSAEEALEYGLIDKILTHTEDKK
#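 FRET quenching reversal measured ClpP activation: 10 microg/mL B. subtilis ClpP at pH 8 with the FRET-FV decapeptide, read at 430 nm after 320 nm excitation. The 20-min minus 0-min signal was scaled between DMSO/no-enzyme wells and ADEP (5.8 microM final).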
# * hit, by the source's call; ? = inconclusive. Potency is read from the fitted curve at half-maximal effect. Not all compounds are listed; count on the stated rates, not on these rows.
SMILES,ClpP mod
Cc1ccc(NC(=O)c2ccc(NC(=O)N3CCSc4ncccc43)cc2)c(C)c1,?
O=C(CSc1ncc(CO)n1Cc1ccccc1)Nc1ccc(C(F)(F)F)cc1,-2.6%
Cc1ccc(OCC(=O)Nc2cccc(C(=O)OCc3cc(=O)n4c(C)csc4n3)c2)cc1,1.4%
CC(=O)N1c2ccc(S(=O)(=O)NCC3CCC(C(=O)Nc4cccc(C)c4C)CC3)cc2CC1C (centres undefined),-1.0%
Cc1cc(C)c2oc(C(=O)Nc3nc4ccc(Cl)cc4s3)cc(=O)c2c1,0.8%
Cc1ccc(S(=O)(=O)NCCc2csc3nc(-c4ccccc4F)nn23)cc1C,0.1%
CCC(CC)C(=O)OCc1cc(=O)n2nc(C3CC3)sc2n1,-4.6%
CCN(C)C1CN(Cc2cn(Cc3cccc(C(F)(F)F)c3)nn2)S(=O)(=O)C1 (centres undefined),-1.9%
CC(C)CCNC(=O)c1ccc(Cn2c(=O)c3cccn3c3cccnc32)cc1,4.4%
CCOc1ccccc1C(=O)NCc1ccc2c(c1)CCN2C(C)=O,-3.3%
Cc1ccc(S(=O)(=O)N(CCc2ccccc2)CC(=O)Nc2ccccc2C)cc1,-8.1%
Cc1ccc(-n2nc(C)c3c(C(=O)Nc4ccc(Br)c(C)c4)cc(C)nc32)cc1,-3.0%
Cc1ccc(NC(=O)CC2Nc3ccccc3NC2=O)cc1C (centres undefined),-1.3%
Cc1ccc(/C=C/C(=O)N2CCC(c3nc4ccccc4o3)CC2)cc1,-1.1%
O=C(NCc1ccccc1Cl)c1ccc2c(c1)N(Cc1ccccc1)C(=O)c1ccccc1S2,-0.2%
CCCS(=O)(=O)c1nc(S(=O)(=O)c2ccc(C)cc2)c(N(C)Cc2ccccc2)s1,-1.3%
O=C(Nc1sc2c(c1C(=O)NCc1ccco1)CCCC2)c1cc(=O)c2cc(Cl)ccc2o1,0.4%
CCOC(=O)C1CCCN(C(=O)c2ccc(C)c(NC(=O)c3nsc4ccccc34)c2)C1 (centres undefined),-2.1%
Cc1ccccc1NC(=O)CSc1nc(-c2ccco2)nc2cc(=O)[nH]n12,-1.4%
Cc1cc(NC(=O)c2ccc(-c3ccc(Cl)cc3)o2)cc(-c2nc3ncccc3o2)c1O,-0.9%
Fc1ccc(-c2noc3ncnc(NCc4ccc(Cl)cc4)c23)cc1,-3.3%
COc1ccccc1CN1CCC(CNC(=O)c2cnn(-c3ccccc3Cl)c2C2CCN(C(=O)OC(C)(C)C)CC2)CC1,0.1%
COC(=O)[C@]12CCCCC=C1N(Cc1ccccc1)C(=O)[C@H](CC(=O)N1CCCC1)C2,1.2%
COc1cccc(-n2c(=O)c3c4c(sc3n(Cc3ccccc3C#N)c2=O)CCCC4)c1,-0.3%

# Of the compounds above, these contain four or more nitrogen atoms.
SMILES,ClpP mod
Cc1ccc(NC(=O)c2ccc(NC(=O)N3CCSc4ncccc43)cc2)c(C)c1,?
Cc1ccc(S(=O)(=O)NCCc2csc3nc(-c4ccccc4F)nn23)cc1C,0.1%
CCN(C)C1CN(Cc2cn(Cc3cccc(C(F)(F)F)c3)nn2)S(=O)(=O)C1 (centres undefined),-1.9%
CC(C)CCNC(=O)c1ccc(Cn2c(=O)c3cccn3c3cccnc32)cc1,4.4%
Cc1ccc(-n2nc(C)c3c(C(=O)Nc4ccc(Br)c(C)c4)cc(C)nc32)cc1,-3.0%
Cc1ccccc1NC(=O)CSc1nc(-c2ccco2)nc2cc(=O)[nH]n12,-1.4%
Fc1ccc(-c2noc3ncnc(NCc4ccc(Cl)cc4)c23)cc1,-3.3%
COc1ccccc1CN1CCC(CNC(=O)c2cnn(-c3ccccc3Cl)c2C2CCN(C(=O)OC(C)(C)C)CC2)CC1,0.1%

# Going on with the list.
SMILES,ClpP mod
O=C(CSc1nc(=O)[nH]c2c1CCCC2)NCc1ccccc1,2.1%
CCCn1cc(S(=O)(=O)c2cc(C)ccc2C)c(=O)c2cc(F)c(N3CCCCCC3)cc21,?
CCOc1ccc(NS(=O)(=O)c2ccc3[nH]cc(C(=O)NCc4ccccc4)c(=O)c3c2)cc1,11%
CSc1cccc(NC(=O)N2CCN(S(=O)(=O)c3ccc4c(ccn4C)c3)CC2)c1,-15%
O=S(=O)(c1ccc(F)cc1)N1CCC(Oc2cccc(C(F)(F)F)c2)CC1,-0.5%
O=C(NCCc1ccccc1)c1cc(-c2ccc(Br)cc2)on1,0.1%
CCOc1ccc2nc(N3CCCC(C(=O)NCCCOC)C3)sc2c1 (centres undefined),-0.4%
CC(C)(C)c1ccc(NC(=O)COC(=O)c2ccccc2OCC(=O)Nc2ccc(Br)cc2)cc1,-3.1%
Cc1cncn1CCc1nc2c3ccccc3nc(SCC(=O)Nc3ccccc3F)n2n1,-1.9%
CC1(C(=O)NCc2ccccc2)CN(S(C)(=O)=O)CC(=O)N1Cc1ccc2c(c1)OCO2 (centres undefined),0.3%
CCOc1ccc(C(=O)N2CCN(Cc3cc(=O)n4nc(-c5cccc(OC)c5)sc4n3)CC2)cc1,-23%
Cc1cccc(Nc2nnc(-c3ccc(C)c(S(=O)(=O)N4CCOCC4)c3)c3ccccc23)c1,-20%

# 3 of these compounds, reformatted:
SMILES	ClpP mod
Cc1cncn1CCc1nc2c3ccccc3nc(SCC(=O)Nc3ccccc3F)n2n1	-1.9%
CC1(C(=O)NCc2ccccc2)CN(S(C)(=O)=O)CC(=O)N1Cc1ccc2c(c1)OCO2 (centres undefined)	0.3%
CCOc1ccc(C(=O)N2CCN(Cc3cc(=O)n4nc(-c5cccc(OC)c5)sc4n3)CC2)cc1	-23%

# New compounds follow.
SMILES,ClpP mod
N#Cc1nc(/C=C/c2ccc(F)cc2)oc1N1CCN(c2ccccc2)CC1,4.5%
Cc1ccccc1C(=O)Nc1sc2c(c1C(=O)N1CCC(C)CC1)CCC(C)C2 (centres undefined),-0.7%
O=C(c1cc(-c2ccc(Cl)cc2)on1)N(Cc1cccc(F)c1)Cc1ccco1,-1.1%
COc1ccc(Cn2c(=O)c3oc4ccccc4c3n(Cc3cccc(C)c3)c2=O)cc1,-11%
Cc1cccc(NC(=O)c2c(NC(=O)c3ccco3)sc3c2CCC(C)C3)c1 (centres undefined),3.8%
COc1ccccc1C(=O)Nc1c(C(=O)Nc2ccccc2F)oc2ccccc12,3.3%
COc1ccccc1Nc1c2c(nc3ccc(NC(=O)c4cccc(F)c4)cc13)CCCC2,-18%
O=C(CC1NCCNC1=O)Nc1cccc(F)c1 (centres undefined),0.2%
CCOc1ccccc1NC(=O)C1CCN(S(=O)(=O)c2ccc(Br)cc2)CC1,2.0%
CC(C)C[C@H]1CN(CCCC[C@H]2CNC(=O)C(=O)N2CC2CCCCC2)C(=O)C(=O)N1Cc1ccccc1,3.0%
O=C(C[n+]1ccncc1)c1ccc2ccccc2c1,6.7%
Cc1c(-c2ccccc2)c(=O)oc2c(CN3CCN(C)CC3)c(O)ccc12,4.3%
CCOC(=O)[C@]12CCCC=C1N(Cc1cccc3ccccc13)C(=O)[C@H](CC(=O)NCCCCc1ccccc1)C2,-0.5%
O=C(Nc1cc(Cl)ccc1O)c1cc(-c2ccc3c(c2)OCO3)on1,-1.6%
COc1ccc(NC(=O)Cc2csc(COc3cccc(C)c3)n2)c(OC)c1,-1.6%
Cc1ccc2c(c1)sc1nc(-c3cc4cc(Cl)ccc4oc3=O)cn12,-5.2%
CCC(C)NS(=O)(=O)c1ccc(N2CCCCS2(=O)=O)cc1 (centres undefined),0.3%
CCc1cc(C(=O)Nc2cnn(Cc3ccccc3C)c2)no1,1.3%
COc1ccccc1NC(=O)C1=C(C)Nc2nc(SCc3ccccc3Cl)nn2C1c1ccncc1 (centres undefined),1.0%
CC1(C)OC(=O)C2=C(C[C@@H](C3CC3)O[C@H]2c2ccc(Cl)cc2)O1,-0.3%
Cc1ccc(CNC(=O)CCCCn2c(=O)c3ccccc3n(Cc3ccc(C)cc3)c2=O)cc1,0.5%
CC(C)c1nc2ccc(C(=O)NC(C)c3ccccc3)cc2o1 (centres undefined),1.9%
COc1cc2c(NC3CCN(C)CC3)nc(N3CCCN(C)CC3)nc2cc1OCCCN1CCOCC1,4.1%
CCOc1ccc(C(C)C)cc1S(=O)(=O)Nc1cccc(-c2ccc(N3CCOCC3)nn2)c1,0.9%
Cc1ccc(C)c(N2CCN(C(=O)C3CCN(c4nc5ccc(C)cc5[nH]4)CC3)CC2)c1,-2.4%
COc1ccc(Cl)cc1NC(=O)CN1C(=O)COc2ccc(S(=O)(=O)NC3CCCC3)cc21,2.5%
Brc1ccc(-c2cn3cc(Cc4ccccc4)sc3n2)cc1,-0.2%
COc1ccccc1N1CCN(C(=O)c2ccc3c(c2)N(Cc2cc(C)ccc2C)C(=O)c2ccccc2S3(=O)=O)CC1,0.8%
Fc1ccc(-c2nc(Nc3cccc(C(F)(F)F)c3)nc3c2COc2ccccc2-3)cc1,4.8%
CCOc1cc(OCC)cc(C(=O)N2CCC[C@H]2C(=O)N2CCC[C@H]2C(=O)N[C@H](C)c2ccccc2)c1,-3.3%
CCN(CC)S(=O)(=O)c1ccc2c(c1)N(CC(=O)N1CCN(c3cc(Cl)ccc3C)CC1)C(=O)CO2,0.4%
COc1ccc(NC(=O)CCS(=O)(=O)c2ccc3c(c2)n(C)c(=O)c(=O)n3C)cc1Cl,0.6%
FC(F)(F)c1cccc(Nc2nc3nonc3nc2Nc2ccc(Cl)cc2)c1,-0.8%
Cc1ccc(S(=O)(=O)c2nc(S(C)(=O)=O)sc2NCc2ccccc2)cc1,-2.1%
COc1ccc2[nH]c(=O)c(CN(C(=O)c3cccc(Cl)c3)c3cccc(C)c3)cc2c1,?
CCOc1ccc(NC(=O)Cn2c(=O)cc(C)c3c(C)nn(-c4ccc(CC)cc4)c32)cc1,-2.4%
COc1ccc(-c2noc(-c3cccnc3N3CCN(c4ccc(OC)cc4)CC3)n2)cc1,-10%
O=C(NCCCN1CCCCC1)c1ccc2c(c1)sc1nc(-c3ccc(F)cc3)cn12,-26%
CCOC(=O)c1cc(NC(=O)c2ccc(C)cc2)c(=O)n2c1oc1ccccc12,3.8%
O=c1oc2ccccc2cc1-c1cn2cc(Cc3cc(Cl)ccc3Cl)sc2n1,-16%
Cc1c(-c2nnc(SCC(=O)Nc3ccc(Cl)cc3)o2)nnn1-c1ccc(F)cc1,0.3%
Cc1ccc(CN2C(=O)c3ccccc3C2c2nnnn2-c2ccc3c(c2)OCCO3)cc1 (centres undefined),-1.4%
CCC(Sc1nc2ccccc2c2nc(-c3ccccc3)nn12)C(=O)Nc1cccc(OC)c1 (centres undefined),-2.5%
O=C(Cn1ncc2c1-c1ccccc1OC2)N1CCN(c2ccccc2F)CC1,-1.5%
CCc1ccc(NC(=O)N(Cc2ccc(C)cc2)Cc2cccn2-c2nnc(N3CCCC3=O)s2)cc1,-4.9%
CC(C)C[C@H]1CN(CCCC[C@H]2CNC(=O)C(=O)N2CC2CCCCC2)C(=O)C(=O)N1CCc1ccccc1,0.3%
O=C(CCSCc1cnn(-c2ccccc2)c1-n1cccc1)NCc1ccc(Cl)cc1,-0.2%
COc1ccc2c(c1)c(CC(=O)Nc1cc(C)c(OC)c(C)c1)c(C)n2C(=O)c1ccc(Cl)cc1,-4.6%
COc1ccc(N2CC(NC(=O)COc3ccc4ccccc4c3)CC2=O)cc1 (centres undefined),-2.8%
COc1ccc(C2C=C(c3ccc(C)cc3)Nc3c(C(=O)Nc4ccccc4)cnn32)cc1 (centres undefined),-3.4%
Cc1ccc(OCCCCn2c(-c3ccc(Cl)cc3)nc3ccccc3c2=O)cc1,-0.4%
Cc1ccc(NC(=O)/C=C/c2ccc(Cl)cc2)c(Br)c1,-2.1%
COc1ccc(C(=O)Nc2onc3c2CCCC3)cc1,-2.2%
COc1ccc(-c2noc(CCC(=O)N(C)c3cc(Cl)ccc3OC)n2)cc1,-0.4%
CCCCCNC(=O)C(c1ccc(C#N)cc1)n1c(=O)c(-c2ccco2)nc2ccccc21 (centres undefined),4.1%
CCC(=O)Nc1cc(-c2nc3cc(C)cc(C)c3o2)ccc1C,4.2%
COc1ccc(Cl)cc1C(=O)NCc1nc(-c2cccc(C)c2)no1,-3.6%
O=C1NC[C@H](CCCCN2C[C@H](Cc3ccc(O)cc3)N(CCc3ccccc3)C(=O)C2=O)N(CC2CCCCC2)C1=O,1.8%
Cc1oc2ncn(CC(C)C)c(=O)c2c1C(=O)Nc1cc(F)ccc1F,0.0%
Cc1ccc(S(=O)(=O)N(CC(=O)Nc2c(C)cccc2C)c2cccc(Cl)c2)cc1,-27%

# (list continues)
SMILES,ClpP mod
Cc1ccc(C(=O)Nc2cccc(-c3nc4cccnc4s3)c2C)cc1,-7.9%
O=C(NCc1ccc(F)cc1)c1cc(-c2ccc(Cl)cc2)n[nH]1,0.2%
CCCNC(=O)c1cnc2c(-c3ccc(OCC)c(OCC)c3)c(C)nn2c1-c1ccccc1,3.2%
O=C(Nc1c(C(=O)N2CCN(c3ccc(F)cc3)CC2)oc2ccccc12)c1c(F)cccc1F,-12%
COC(=O)[C@]12CCCCC=C1N(CCC1=CCCCC1)C(=O)[C@H](CC(=O)N1CCOCC1)C2,2.8%
FC(F)(F)c1cc(Cl)c2nc(-c3cccc(Cl)c3)c(Cc3cccc(Cl)c3)n2c1,-15%
O=C(c1cccc(Cl)c1Cl)N(Cc1ccco1)Cc1cccs1,-2.5%
COC(=O)c1ccccc1NC(=O)Cn1c(CCC(=O)O)ccc1-c1ccc(C)cc1,-9.2%
CCOC(=O)[C@]12CCCC=C1N(CCc1ccc(OC)c(OC)c1)C(=O)[C@H](CC(=O)NCC13CC4CC(CC(C4)C1)C3)C2,3.9%
O=C(CCOc1ccccc1)N(Cc1cccnc1)c1nc2ccc(Cl)cc2s1,-4.7%
COc1ccc([N+](=O)[O-])cc1CN1CCN(c2ncc(Cc3ccccc3)cn2)CC1,-3.8%
CNc1cc[n+](C)c2ccccc12,?

# Screens: PubChem BioAssay, National Center for Advancing Translational Sciences (NCATS)
